Sfp inh: qHTS Assay for Inhibitors of Bacillus subtilis Sfp phosphopantetheinyl transferase (PPTase) | 4'-phosphopantetheinyl transferase ffp (Bacillus subtilis), Q9F4F7 | actives 3.5% (n = 310,000) | Biochemical Sfp PPTase activity, qHTS | Potency, µM, for the others: max response, negative = inhibition, most hits filed as inhibitors; active means well fitted inhibition curve with a large enough effect; inconclusive means small, poorly fitted or top-dose-only effect, or another doubt; inactive means no such curve, though single readings can be large or run the other way;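 further: the enzyme is Sfp with the accession as filed and its product quenches rhodamine fluorescence; potency means the concentration at half of the fitted maximal effect; 0% = enzyme reaction without inhibitor and -100% = no enzyme wells; top concentration of the series not given in the record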
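Compounds were incubated with enzyme (final 15 nM) for 15 min at room temperature before substrate addition started the reaction. Fluorescence at 525 nm excitation, 598 nm emission was recorded immediately and after 30 minutes.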
PINK1 modulator: A Quantitative High throughput Screen to Identify Chemical Modulators of PINK1 Expression | PINK1 immunofluorescence, high-content cytometry, 24 h | Potency, µM (series often up to 76.6 µM), inactives show at the top dose activation (PINK1 increase), actives largely listed as activators | AID 624263, 2012 | actives 0.2% (n = 410,000); active = well fitted activation curve with a large enough effect; inconclusive = small, poorly fitted or top-dose-only effect; inactive = flat fitted curve, though single readings scatter; cell line not stated here;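 further: potency means the concentration at half of the fitted maximal effect; % of control where 0% means no effect; nearly all actives have a fitted effect of over 65% in size; a mitochondrial uncoupler was the plate control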
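Stable cell line, 250 cells/well, 12 h attachment; compounds pinned at 5 concentrations, 24 h; CCCP control. Fixed with nuclear dye, primary antibodies 12 h at 10 degrees C, secondary plus cell stain; laser-scanning cytometer read.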
TRPV1 potentiator: HTS Assay for Compounds that Act as Potentiators of the Vanilloid Receptor 1; TRPV1-expressing cells, Fluo-8 calcium influx, capsaicin EC20 potentiation; host cell line not named in the record; control for the full effect not named in the record; actives 0.02% (n = 320,000); Transient receptor potential cation channel subfamily V member 1 (Homo sapiens), Q8NER1; potentiation, % at 8.33 µM; active means potentiation above 80%; inconclusive means 30% to 80%; inactive means below 30%; further: 0% is about no effect
Target sequence (Q8NER1 whole entry, looked up): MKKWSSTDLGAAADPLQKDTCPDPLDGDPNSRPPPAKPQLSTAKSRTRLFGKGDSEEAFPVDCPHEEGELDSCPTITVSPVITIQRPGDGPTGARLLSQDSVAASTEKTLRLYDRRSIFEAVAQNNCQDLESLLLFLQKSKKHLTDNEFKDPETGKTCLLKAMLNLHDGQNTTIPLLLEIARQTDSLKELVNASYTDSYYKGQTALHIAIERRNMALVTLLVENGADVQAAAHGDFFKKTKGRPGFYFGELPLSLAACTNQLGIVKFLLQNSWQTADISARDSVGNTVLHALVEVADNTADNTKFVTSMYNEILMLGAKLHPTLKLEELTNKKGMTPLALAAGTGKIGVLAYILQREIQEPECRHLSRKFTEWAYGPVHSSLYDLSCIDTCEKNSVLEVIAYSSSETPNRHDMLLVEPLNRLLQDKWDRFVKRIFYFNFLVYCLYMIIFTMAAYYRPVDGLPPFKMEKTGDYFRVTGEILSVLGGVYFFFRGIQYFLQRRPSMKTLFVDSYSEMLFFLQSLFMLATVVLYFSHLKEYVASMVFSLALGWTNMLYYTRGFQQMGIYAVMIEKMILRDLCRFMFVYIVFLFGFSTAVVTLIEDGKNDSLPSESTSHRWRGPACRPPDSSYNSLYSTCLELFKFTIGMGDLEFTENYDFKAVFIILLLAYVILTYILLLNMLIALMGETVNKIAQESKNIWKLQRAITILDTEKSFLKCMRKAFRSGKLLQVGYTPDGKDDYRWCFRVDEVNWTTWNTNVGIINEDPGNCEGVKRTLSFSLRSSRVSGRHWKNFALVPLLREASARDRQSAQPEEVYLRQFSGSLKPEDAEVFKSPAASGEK
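Cells expressing TRPV1 were dye-loaded with Fluo-8 and read kinetically: 10 s baseline, 3 min after compound (agonist portion), then 2 min after EC20 capsaicin (allosteric enhancer portion). Calcium-bound dye fluorescence at 480/520 nm.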
TRPML1 inh: qHTS for Inhibitors of the Human Mucolipin Transient Receptor Potential 1 (TRPML1). Mucolipin-1 (Homo sapiens), Q9GZU1. TRPML1-inducible cells, Ca2+ dye fluorescence, FDSS; hits give low values; inhibition of EC80 agonist-evoked calcium signal. activity change, negative = inhibition, % (concentration not given with the values). actives 0.02% (n = 390,000). AID 624415, 2012; in the data active means activity change below about -50%; inconclusive means about -30% to -50%; inactive means above about -30%;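 further: stimulus is agonist 54-4 at its EC80 concentration; on the % scale 0 is the no-effect control and ±100 the full control effect; compound concentration not given in the record; the text of the record puts the active cut at -80%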
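Calcium fluorescence in TRPML1-DL cells induced overnight with Tet: a 110 s read after compound pin addition, then a 110 s antagonist read after challenge with 54-4 at 4 uM final (EC80).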
Menin MLL FP FL: qHTS Assay for Inhibitors Targeting the Menin-MLL Interaction in MLL Related Leukemias: Competition With Fluorescein Labeled MLL-derived Peptide; 290,000 tested, under 10 active; FP activity change, % at 61.4 µM; AID 1766, 2009; Fluorescence polarization, fluorescein-MLL peptide displacement from menin; inconclusive = falling polarisation curve, or a change in total fluorescence; inactive = total fluorescence flat and polarisation flat or rising; no compound was filed as active; the % refers to the polarisation; negative = inhibition;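 further: % of control where 0% means no effect; inhibitors lower the polarisation; unlabelled MLL peptide was the positive control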
ClpP mod: qHTS Assay for Activators of ClpP | AID 651965, 2013 | purified B. subtilis ClpP, FRET peptide cleavage, 20 min | actives 1.9% (n = 340,000) | Potency, µM (doses to about 57.5 µM), without a hit: at the highest dose activity change, negative = active | ATP-dependent Clp protease proteolytic subunit (Bacillus subtilis (strain 168)), P80244; active = well fitted falling curve with a large enough effect; inconclusive = small, poorly fitted or top-dose-only effect; inactive = no such curve, though single readings can be large or run the other way; further: potency means the concentration at half of the fitted maximal effect; the source files actives as falling curves though it sought activators and does not explain the sign; nearly all actives have a fitted effect of over 65% in size; many hits overshoot -100%
Target sequence (P80244 whole entry, looked up): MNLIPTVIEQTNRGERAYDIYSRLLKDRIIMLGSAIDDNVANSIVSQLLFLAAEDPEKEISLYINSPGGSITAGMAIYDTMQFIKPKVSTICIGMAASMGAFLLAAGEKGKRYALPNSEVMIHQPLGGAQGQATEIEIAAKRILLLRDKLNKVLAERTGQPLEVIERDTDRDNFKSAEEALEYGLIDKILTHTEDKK
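Purified B. subtilis ClpP, 10 microg/mL final in Tris/HCl pH8 with KCl, BSA, glycerol and Tween-20, cleaved an Abz/nitrotyrosine-quenched decapeptide. Fluorescence (ex 320, em 430) was read at 0 and 20 min at room temperature. Delta was normalized to 5.8 microM ADEP and DMSO/no-enzyme controls.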
TRPML1 ag: qHTS for Agonists of the Human Mucolipin Transient Receptor Potential 1 (TRPML1) | activation, % (no concentration beside the values) | TRPML1-expressing cells, Ca2+ dye fluorescence, FDSS; host cell line not named in the record; reference of the full effect not given here | actives 0.12% (n = 410,000) | Mucolipin-1 (Homo sapiens), Q9GZU1 | AID 624414, 2012; in the data active = activation above about 50%; inconclusive = about 30% to 50%; inactive = below about 30%; further: 0% is about no effect; the text of the record puts the active cut at 80%
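Cells: TRPML1-DL, 1X Tet inducer, ~16 h at 37 degrees C/5% CO2. Dye: ABD Ca8 no-wash + quencher, 45-90 min RT. Read: 10 s baseline, compound add, 110 s agonist phase; 54-4 EC80 (4uM final), 110 s antagonist phase.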
Starred values were filed as active, the others as inactive; i = inactive; ? = inconclusive; . = not tested or not shown; & = joins results of further samples; [ ] = remark or other dose. Outcome played no part in choosing rows; overall some 4.4% were active at least once.

SMILES	Sfp inh	PINK1 modulator	TRPV1 potentiator	TRPML1 inh	Menin MLL FP FL	ClpP mod	TRPML1 ag
O=C(CCn1cnnn1)Nc1cccc(F)c1	8%	-0.6%	5	-6	-2.1	-1.5%	0.3
CC1CCCC/C1=N\NC(=S)NCCc1ccccc1 (stereo not given)	12%	1.7%	-10	54	2.1	-0.5%	1.0
COc1ccc(C(=O)CSc2ccc(-c3ccccc3)nn2)cc1	-1%	1.1%	-14	-1	1.0	-1.8%	3.9
Cc1ccccc1CNC(=O)CCC(=O)N1CC2CCCN2c2ccccc21 (stereo not given)	.	0.8%	.	26	.	-0.1%	-0.8
CC1CCCCN1CC(=O)Nc1ccccc1Sc1ccccc1 (stereo not given)	4%	?	-13	7	10	-0.6%	?
Cc1ccc(Cl)cc1N1CCN(S(=O)(=O)c2cn(C)c(C)n2)CC1	.	-5.0%	.	-14	.	-1.2%	0.0
COc1ccc(OC)c(CNC(=O)CCc2c(C)nc3c(c2C)c(=O)n(C)c(=O)n3C)c1	.	2.1%	.	5	.	-6.7%	-1.4
Cc1nonc1OCCNC(=O)C12CC3CC(CC(C3)C1)C2	1%	-3.0%	-1	3	2.4	1.1%	-0.1
CCOC(=O)c1c(NC(=O)C(C)Sc2cn(CCNC(=O)c3c(F)cccc3F)c3ccccc23)sc2c1CCC2 (stereo not given)	.	0.4%	.	-21	.	-2.4%	-0.1
O=C1C2CCCCC2C(=O)N1c1ccc(NC2CCCCC2)c([N+](=O)[O-])c1 (stereo not given)	4%	0.2%	29	6	-2.8	-1.2%	0.6
NCCNc1ccc([N+](=O)[O-])cc1	14%	0.6%	2	3	4.2	0.2%	-0.1
COc1cccc(NC(=O)COC(=O)c2ccccc2F)c1	6%	4.9%	-8	10	-0.4	0.8%	0.2
Cc1cnc(NC(=O)c2ccc(Cl)nc2)s1	3%	0.0%	8	29	11	-5.3%	-0.3
O=C(COC(=O)/C=C/c1ccco1)Nc1ncc(C(F)(F)F)cc1Cl	40µM*	1.9%	-4	-7	6.6	2.1%	0.1
COc1ccc(NS(=O)(=O)c2cc(NC(=O)c3ccc(=O)[nH]c3)ccc2C)cc1	.	12%	8	-3	.	-0.3%	-0.2
CC(C)Cc1nc(N2CCN(C(=O)Cc3ccccc3)CC2)c(C#N)c2c1COC(C)(C)C2	7%	.	-8	.	-2.2	.	.
CCOC(=O)C1(Cc2cccc(OC)c2)CCN(Cc2cccn2-c2ccccn2)CC1	15%	0.9%	5	0	-1.0	.	-0.3
COc1ccc([C@]23Cc4ccccc4C(O2)c2c(cc(C)n(Cc4ccccc4)c2=O)O3)cc1	7%	.	i	.	?	.	.
CCOc1ccc(CCNC(=O)CCC(=O)c2cccs2)cc1OCC	.	1.2%	.	20	.	0.0%	3.9
Cc1ccc(Cl)cc1NC(=O)CC1NC2CCCCC2NC1=O (stereo not given)	17%	-0.1%	-2	-24	-2.6	2.8%	0.8
CC1CCCC(C)N1C(=O)COC(=O)c1ccccc1C(=O)c1ccccc1 (stereo not given)	.	0.5%	.	0	.	-4.2%	-0.6
Cc1ccc(NC(=O)C2CCN(C(=O)c3cccs3)CC2)c(C)c1	-9%	0.7%	15	13	-6.3	.	0.4
CCOc1ccc2nc(SCC(=O)NCc3ccc(OC)cc3)[nH]c2c1	10%	1.0%	1	10	4.0	0.3%	-0.8
COc1ccc(C(Cl)=C(C=O)c2ccc(OC)c(OC)c2)cc1OC	.	-0.9%	.	.	.	-1.5%	-0.9
O=C(Cc1ccccc1)NC1CCN(S(=O)(=O)c2cccc(F)c2)CC1	23%	-0.5%	-11	-6	0.3	-0.6%	0.3
CC1(C(=O)O)CCC(C(=O)NNC(=O)c2ccccc2O)C1(C)C (stereo not given)	-14%	-1.4%	-5	-16	-0.2	3.7%	2.5
Cc1c(C(=O)N(C)c2cccc(C(F)(F)F)c2)sc2nc3n(c(=O)c12)CCCCC3	.	2.6%	.	-16	.	0.9%	2.6
Cc1cc2c(SCC(=O)N3CCN(c4ccccc4)CC3)ncnc2s1	.	?	-12	2	.	-2.4%	-0.9
CN(C)S(=O)(=O)c1cccc(NC(=S)NC2CCCCC2)c1	7%	1.0%	29	-7	8.7	.	-0.5
COc1cc(CNc2ncnc3c2ncn3[C@H]2CN(Cc3cccc(C(F)(F)F)c3)C[C@@H](COC(C)=O)O2)cc(OC)c1OC	.	3.2%	.	.	.	-2.4%	-0.7
Cc1nnc(NC(=O)C2c3ccccc3Oc3ccccc32)s1	-91%	-1.1%	7	20	1.5	-10%	0.0
COCC(=O)N1CCC(Oc2ccc(C(=O)N(C)C(C)c3ccon3)cc2)CC1 (stereo not given)	2%	-3.7%	-15	-4	-2.4	-0.6%	0.5
COc1ccc(N2C(=O)c3ccccc3C2O)cc1 (stereo not given)	23%	1.5%	-25	8	-2.9	.	0.1
CC(C)c1cnc2c(c1SCC(=O)Nc1ccc(C(N)=O)cc1)c(=O)n(C)c(=O)n2C	.	0.6%	.	-15	.	-0.2%	1.1
CCC1=NN(C(=O)Cc2ccc(OC)c(OC)c2)C(O)(C(F)(F)F)C1 (stereo not given)	17%	6.2%	-8	15	-1.1	0.6%	0.9
CN1CCN(c2ccc(NS(=O)(=O)c3ccc(Cl)cc3)cn2)CC1	-12%	2.1%	8	-8	-24	.	-0.4
Cc1csc(SCC(=O)Nc2nc(-c3ccccc3)cs2)n1	-4%	-1.7%	17	-2	4.1	-3.5%	3.1
O=C(Cn1ccc2ccccc2c1=O)NCCC(=O)Nc1ccc2c(c1)OCCO2	18%	-0.9%	1	7	0.9	-5.2%	0.0
COc1cccc2[nH]c3c(N4CCCCC4)ncnc3c12	-12%	-0.2%[38.3 µM]	8	5	6.0	28µM*	-0.7
O=C(COC(=O)c1ccc(Cl)nc1)NC(=O)c1ccccc1	-1%	-3.1%	9	-9	.	-1.7%	0.0

Some of the entries so far, with two lines to a compound:
Under each structure – Sfp inh | PINK1 modulator | TRPV1 potentiator | TRPML1 inh | Menin MLL FP FL | ClpP mod | TRPML1 ag
Cc1cnc(NC(=O)c2ccc(Cl)nc2)s1
  3% | 0.0% | 8 | 29 | 11 | -5.3% | -0.3
O=C(COC(=O)/C=C/c1ccco1)Nc1ncc(C(F)(F)F)cc1Cl
  40µM* | 1.9% | -4 | -7 | 6.6 | 2.1% | 0.1

(continued)
SMILES	Sfp inh	PINK1 modulator	TRPV1 potentiator	TRPML1 inh	Menin MLL FP FL	ClpP mod	TRPML1 ag
CC(=O)Nc1cccc(NC(=O)CSc2nnnn2C)c1	11%	.	-13	.	1.9	.	.
Cc1nnc(SCC(=O)NC2CCCCC2)n(N)c1=O	6%	-0.6%[38.3 µM]	1	-26	-2.8	-0.1%	0.1
Cc1ccc2cn[nH]c2c1NC(N)=S	7%	-1.6%	-3	-7	6.3	.	1.5
O=C(CC[C@H]1O[C@@H](n2ccc(=O)[nH]c2=O)[C@H](O)[C@@H]1O)NCCN1CCOCC1	.	-0.6%	.	18	.	-1.6%	0.8
COc1cc(NC(=O)CSc2ncccc2C(=O)OC(C)C)cc(OC)c1	12%	2.6%	12	45&-16	3.1	3.9%&3.1%	1.0&2.0
O=C(Nc1ccc(C(F)(F)F)cn1)Nc1cccs1	-8%	-0.7%	7	10	-0.2	?	0.1
Cc1ccc(S(=O)(=O)Nc2ccc(-c3nnc(SCC#N)n3C)cc2)cc1	6%	-0.5%	0	-2	2.6	-2.7%	0.1
COc1ccc2nc(NC(=O)CCc3nc(-c4ccccc4F)no3)sc2c1	6%	2.4%	11	17	-1.1	-1.2%	-0.5
COc1ccc2cc(C(=O)Nc3c(C)n(C)n(-c4ccccc4)c3=O)sc(=O)c2c1OC	-16%	2.3%	3	-2	-1.5	-0.8%	-0.6
CCCCOc1ccc(C(=O)N/N=C/c2cn[nH]c2-c2ccc(OC)c(OC)c2)cc1	11%	2.7%	13	16	1.8	-1.2%	0.1
CN1CCN(c2nc3c(c(=O)[nH]c(=O)n3C)n2Cc2ccc(Cl)cc2)CC1	7%	-1.0%	30	6	0.6	-2.4%	-0.2
Cc1ccc(S(=O)(=O)/N=C(\CCl)N2CCOCC2)cc1	9%	22%	6	-13	0.3	-3.0%	-0.2
Cc1cnc(C(=O)OCC(=O)c2ccccc2)cn1	.	3.7%	24	-8	.	.	0.1
CCN(CC(=O)Nc1c(F)cccc1F)C(=O)/C=C/c1ccc2c(c1)OCO2	.	-2.4%	9	-12	.	1.1%	-0.4
COc1ccc(N(CC(=O)NCc2cccnc2)S(=O)(=O)c2ccc(C)c([N+](=O)[O-])c2)cc1	19%	2.2%	1	-5	-2.3	.	-0.6
CN(C(=O)COC(=O)C12CC3CC(CC(Cl)(C3)C1)C2)c1ccccc1	.	-0.9%	.	-12	.	0.0%	4.8
Cc1ccc(Cl)cc1-n1ncc2c(NCCCc3ccccc3)ncnc21	.	?	.	5	.	?	0.8
NC(=S)NN=Cc1nccc2c(C(F)(F)F)cccc12	.	?	.	-4	.	-4.9%	-0.8
CCOc1ccc2[nH]c(C(=O)N/N=C/c3ccccc3OC)cc2c1	-10%	11%	0	3	13	-2.1%	1.0
CCN(C[C@H]1N[C@@](C)(C(=O)OC)[C@H]2C(=O)N(C)C(=O)[C@@H]12)S(=O)(=O)c1ccc(OC)cc1	.	1.1%	.	12	.	1.4%	-0.6
Cc1nc(-n2nc(C)c(Cc3ccc4c(c3)OCO4)c2C)sc1C(=O)Nc1cccc(Cl)c1	.	4.4%	.	-13	.	?	0.3
COC(=O)C1=C(NC(C)=O)CCS1	-3%	-1.9%	-6	-11	4.8	-2.0%	-0.5
Cc1nn(-c2ccc(N3CCCCC3)nn2)c(C)c1CCC(=O)Nc1ccccc1F	8%	-1.6%	6	-14	.	-0.6%	-0.1
CN(C(=O)CCc1nnc(CCCCc2ccccc2)o1)C1CCOCC1	7%	-0.3%	-4	7	-0.7	0.9%	-0.2

From PubChem
